Compound activity (PubChem)
gsp ag: gsp mutant agonism; Potency, µM (highest dose often 76.9 µM), for inactives: at the highest dose activation (cAMP increase), usual class: activators; gsp mutant cells, cAMP HTRF, 30 min; control for the full effect not named in the record; 340,000 tested, 0.13% active; AID 624287; active = well fitted activation curve with a large enough effect; inconclusive = small, poorly fitted or top-dose-only effect, or another doubt; inactive = no such curve, though single readings can be large or run the other way; cell line not stated here;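 further: phosphodiesterase inhibitor Ro 20-1724 added with compounds to block cAMP breakdown; potency means the concentration at half of the fitted maximal effect; nearly all actives have a fitted effect of over 60% in size; about a fifth of the inactives were tested at one dose only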
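Cells in DMEM/10% FBS with G418 were pretreated with compounds in DMSO plus […] (300 uM stock) for 30 min at 37C. cAMP was measured by HTRF (cAMP-d2 plus anti-cAMP antibody-K) after 30 min at room temperature.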
gsp antagonist: antagonists of gsp mutant (McCune-Albright syndrome). gsp-mutant cells, cAMP HTRF, 30 min; control for the full effect not named in the record. Potency, µM (top dose mostly 76.9 µM), for the others: at the highest dose activity change, negative = inhibition, hits mostly inhibitors. 340,000 tested, 0.4% active; active = falling curve of any shape with a large fitted effect; inconclusive = falling curve, mostly with a smaller effect; inactive = flat or rising curve; cell line not stated here;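 further: intracellular cAMP measured with PDE inhibitor Ro 20-1724 present during compound exposure; potency means the concentration at half of the fitted maximal effect; on the % scale 0 is the no-effect control and ±100 the full control effect; nearly all actives have a fitted effect of over 65% in size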
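HTRF cAMP measurement after 30 min RT detection following 30 min, 37C compound treatment alongside […] (added as 300 uM solution) in G418-selected cells seeded at 2000/well and grown 16–24 h.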
ClpP mod: qHTS Assay for Activators of ClpP; ATP-dependent Clp protease proteolytic subunit (Bacillus subtilis (strain 168)), P80244; purified B. subtilis ClpP, FRET peptide cleavage, 20 min; Potency, µM (series often up to 57.5 µM), without a hit: at the highest dose activity change, negative = active; 340,000 tested, 1.9% active; active = well fitted falling curve with a large enough effect; inconclusive = small, poorly fitted or top-dose-only effect; inactive = no such curve, though single readings can be large or run the other way; further: potency means the concentration at half of the fitted maximal effect; the source files actives as falling curves though it sought activators and does not explain the sign; nearly all actives have a fitted effect of over 65% in size; many hits overshoot -100%
Target sequence (P80244 whole entry, looked up): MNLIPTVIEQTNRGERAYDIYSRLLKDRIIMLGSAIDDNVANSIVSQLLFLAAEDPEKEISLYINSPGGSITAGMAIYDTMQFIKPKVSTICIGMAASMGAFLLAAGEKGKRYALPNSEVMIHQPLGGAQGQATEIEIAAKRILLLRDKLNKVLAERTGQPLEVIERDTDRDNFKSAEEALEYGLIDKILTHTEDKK
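Purified B. subtilis ClpP, 10 microg/mL final in Tris/HCl pH8 with KCl, BSA, glycerol and Tween-20, cleaved an Abz/nitrotyrosine-quenched decapeptide. Fluorescence (ex 320, em 430) was read at 0 and 20 min at room temperature. Delta was normalized to 5.8 microM ADEP and DMSO/no-enzyme controls.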
Menin-MLL FL inh: inhibitors of human menin-MLL interaction, wild-type MLL peptide; Fluorescence polarization, fluorescein-MLL peptide displacement from menin; FP activity change, % at 61.4 µM; 290,000 tested, under 10 active; AID 1766; inconclusive = falling polarisation curve, or a change in total fluorescence; inactive = total fluorescence flat and polarisation flat or rising; no compound was filed as active; the % refers to the polarisation; negative = inhibition;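 further: % of control where 0% means no effect; inhibitors lower the polarisation; unlabelled MLL peptide was the positive control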
TRPML1 ag: activates the human TRPML1 channel; activation, % (test concentration not listed); Q9GZU1; 410,000 tested, 0.12% active; TRPML1-expressing cells, Ca2+ dye fluorescence, FDSS; host cell line not named in the record; reference of the full effect not given here; in the data active = activation above about 50%; inconclusive = about 30% to 50%; inactive = below about 30%; further: 0% is about no effect; the text of the record puts the active cut at 80%
Target sequence (Q9GZU1 whole entry, looked up): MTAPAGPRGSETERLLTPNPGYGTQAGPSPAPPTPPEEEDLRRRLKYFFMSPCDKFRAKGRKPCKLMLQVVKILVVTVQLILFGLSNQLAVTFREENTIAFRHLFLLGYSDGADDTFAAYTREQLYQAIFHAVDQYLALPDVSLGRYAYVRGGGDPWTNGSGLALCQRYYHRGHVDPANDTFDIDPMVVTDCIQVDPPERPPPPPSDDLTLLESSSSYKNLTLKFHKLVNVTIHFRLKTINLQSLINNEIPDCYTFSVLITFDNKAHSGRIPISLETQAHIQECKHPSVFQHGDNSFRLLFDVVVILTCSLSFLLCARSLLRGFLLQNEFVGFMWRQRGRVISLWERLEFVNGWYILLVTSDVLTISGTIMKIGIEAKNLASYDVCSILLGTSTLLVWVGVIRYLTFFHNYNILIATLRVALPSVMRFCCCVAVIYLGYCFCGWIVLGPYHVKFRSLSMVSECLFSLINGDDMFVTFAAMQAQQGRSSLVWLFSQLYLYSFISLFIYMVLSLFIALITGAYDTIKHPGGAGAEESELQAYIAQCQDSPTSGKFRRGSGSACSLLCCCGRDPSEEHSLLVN
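Kinetic FDSS Ca2+ read in Tet-induced TRPML1-DL cells (ABD Ca8 dye plus quencher, 45-90 min RT loading): baseline, then compound, then 110 s agonist window; EC80 agonist 54-4 at 4uM final added afterwards for a 110 s antagonist window.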
TRPML1 blocker: inhibitors of human TRPML1 channel; TRPML1-inducible cells, Ca2+ dye fluorescence, FDSS; stronger effect = lower value; inhibition of EC80 agonist-evoked calcium signal; activity change, negative = inhibition, % (test concentration not listed); Q9GZU1; AID 624415; 390,000 tested, 0.02% active; in the data active means activity change below about -50%; inconclusive means about -30% to -50%; inactive means above about -30%;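 further: stimulus is agonist 54-4 at its EC80 concentration; on the % scale 0 is the no-effect control and ±100 the full control effect; compound concentration not given in the record; the text of the record puts the active cut at -80%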
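Tet-induced TRPML1-DL cells loaded with Ca8 no-wash calcium dye were read kinetically on FDSS. Compound addition was followed by EC80 agonist 54-4 (4 uM final); inhibition was read over 110 s.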
Starred values were filed as active, the others as inactive; ? = inconclusive; nt = no result given; & = joins results of further samples; [ ] = dose if it differs, or a comment.

SMILES	gsp ag	gsp antagonist	ClpP mod	Menin-MLL FL inh	TRPML1 ag	TRPML1 blocker
Cc1cccc(C(=O)c2cnc3ccccc3c2-c2ccccc2)c1	2%	-12%	1.9%	3.4	1.9	5
CC1CCC2(CC1)Nc1ccccc1C(=O)N2c1ccccc1 (configuration not stated)	16%	9%	28µM*	-1.4	-0.4	30
CC1=C(C(=O)Nc2cccc(F)c2)C2(CCCCC2)OC1=O	nt	nt	-2.0%	nt	1.0	-19
COc1ccc(NC(=O)CCNS(=O)(=O)c2cc(Br)cnc2N)cc1OC	-50%[inhibitor]	7%	-9.0%	1.4	0.2	7
CC(Sc1nnc(CNC(=O)c2ccco2)n1C)C(=O)Nc1nccs1 (configuration not stated)	12%[15.4 µM]	nt	nt	-4.8	0.1	-7
COc1ccc(NC(=O)N(C)C[C@@H]2OCc3cnnn3CCCC(=O)N([C@@H](C)CO)C[C@H]2C)c(OC)c1	-13%	nt	-1.6%	nt	-0.7	-11
CCOc1cc(/C=C/c2ccc3cccc([N+](=O)[O-])c3n2)ccc1O	2%	-27%	-7.0%	2.8	2.2	56
CC(Sc1cnccn1)C(=O)O (configuration not stated)	1%[15.4 µM]	20%	nt	-4.9	-0.1	-2
O=C(NCc1ccccn1)c1cccc(S(=O)(=O)NCc2ccccc2)c1	?	16%	-2.2%	nt	-0.8	0
COC(=O)C[C@H]1C[C@@H]2c3cc(N(C)C)ccc3O[C@@H]2[C@H](CO)O1	-19%	nt	-30%	nt	0.1	-18
COc1ccc(Br)cc1C(=O)O	-25%	19%	-0.3%	4.6	0.3	15
CCC(=O)Nc1c(-c2ccccc2Cl)c(=O)c2ccccc2n1C	16%	3%	-27%	-11	2.2	-2
Cc1ccc(N(CC(=O)NC(C)C)C(=O)CCC(=O)Nc2nccs2)cc1C	24%	15%	nt	-1.8	-0.5	-25
O=[N+]([O-])c1cc(Cl)ccc1N1CCCCC1	-6%[15.4 µM]	8%	-2.3%	-6.5	-0.3	23
N#Cc1cn(-c2ccccc2)nc1C(=O)c1ccccc1	-6%	-15%	0.4%	-0.6	0.6	10
N#CCSc1nc(Nc2ccc3c(c2)OCO3)c2ccccc2n1	-2%	-14%	1.7%	1.7	1.0	-10
Cc1cc(Cl)c(OCCOCCN2CCNCC2)c(Cl)c1	15%	15%	0.3%	nt	-0.8	-11
COc1cc(NC(=O)c2ccc3nsnc3c2)cc(OC)c1OC	?	14%	0.1%	-0.4	0.1	15
CCOC(=O)c1ccc2[nH]c3ccccc3c2c1	nt	-8%	5.0%	1.0	nt	nt
Clc1ccc(CN2CCc3c([nH]c4ccccc34)C2)cc1Cl	-59%[inhibitor]	-1%	-30%	-5.0	3.2	68
CSc1nc(O)c(C(c2ccc(O)cc2)c2c(O)nc(SC)[nH]c2=O)c(=O)[nH]1	-20%	6%	0.1%	1.7	-0.2	-11
CCCc1nn(C)c2c(=O)[nH]c(-c3cc(S(=O)(=O)Nc4ccc(NC(C)=O)cc4)ccc3OCC)nc12	-5%	3%	-3.4%	-1.6	0.1	0
CN(C)c1ncnc2c1ncn2C1CCCO1 (configuration not stated)	30%	11%	nt	nt	-0.8	10
Cc1ccccc1CN(C)C(=O)COC(=O)c1ccc2[nH]c(C)c(C)c2c1	?	-20%	-5.4%	nt	1.0	41
CCNc1nc(NCC)nc(C(=O)OCCO)n1	2%	6%	1.7%	0.2	-0.6	-2
Further compounds
SMILES	gsp ag	gsp antagonist	ClpP mod	Menin-MLL FL inh	TRPML1 ag	TRPML1 blocker
O=C(NCCc1ccccc1)c1ccc2c(c1)CCN2S(=O)(=O)c1ccc(Br)cc1	nt	nt	0.1%	nt	1.0	30
O=C(O)c1ccccc1C(=O)NCc1ccccc1	-41%[inhibitor]	0%	-0.3%	0.2	0.1	-1
Cc1nc(C)c(-c2ccc(SCC(=O)Nc3cccc(Cl)c3C)nn2)s1	-1%[15.4 µM]	-13%	1.5%	nt	1.3	-17
CC1(C)CC(=O)C(C(=O)c2ccccc2)C(=O)C1	8%[15.4 µM]	10%	0.2%	4.3	0.1	16
O=C(CCC1CCCC1)NNC(=O)COc1ccc(Br)cc1	?	10%	-0.7%	nt	-2.0	7
O=C(NCc1ccc(Cl)cc1)c1ccc(Br)o1	-3%	1%	0.4%	5.2[94.6 µM]	0.4	3
O=C(Cc1ccc([N+](=O)[O-])cc1)N1N=C(C2CC2)CC1(O)C(F)(F)F (configuration not stated)	-3%[15.4 µM]	nt	nt	0.2	2.3	21
COc1ccc(C2Nc3ccccc3-c3cc(C)nn32)cc1OC (configuration not stated)	nt	nt	14µM*	nt	0.2	4
CCc1[nH]c(=S)c(C#N)c2c1CCCC2	?	8%	-4.6%	-0.4	0.6	9
Cc1ccc(-c2cc(C(=O)N/N=C/c3ccccc3)n[nH]2)o1	-3%	-7%	nt	-6.4	-0.2	2
CC1=C(C(=O)OC(C)C)C(c2ccccn2)n2ncnc2N1 (configuration not stated)	-49%	-4%	-1.4%	-0.5	0.4	-12
NNC(=O)CNC(=O)C12CC3CC(CC(C3)C1)C2	-22%[15.4 µM]	12%	nt	6.6	-0.5	-2
COc1ccc(NC(=O)C2COc3ccccc3O2)cc1 (configuration not stated)	30%	2%	nt	4.7	-0.3	-9
COc1cc(OC)cc(C(=O)N2CCN(c3ncccn3)CC2)c1	-2%	-2%	-4.9%	-2.8	-1.3	2
CNC(=O)CCCCC(=O)N/N=C/c1ccc(Cl)cc1Cl	0%	8%	-0.1%	3.0	nt	nt
Nc1nc(SCC(=O)N2N=C(c3ccc(Cl)cc3)CC2c2ccco2)n[nH]1 (configuration not stated)	11%	-5%	-0.4%	7.9	0.3	9
CCC(C)(C)NC(=O)CN(C(=O)c1snc(C(N)=O)c1N)c1ccc2c(c1)OCO2	-13%	0%	-1.5%	0.9	0.0	12
CC(C)(C)CC(=O)OCC(=O)Nc1cc(C(C)(C)C)nn1-c1ccccc1	4%	3%	1.0%	2.8	2.8	-11
COc1ccc(/C(C)=N/NC(=O)CNC(=O)/C=C/c2ccccc2OC)cc1	0%	0%	nt	-3.6	-0.7	4
Cc1cc(C)c2nc(NNC(=O)c3ccc(S(=O)(=O)N4CCCCC4)cc3)sc2c1	7%	-13%	-3.1%	-0.5	0.3	21
C[n+]1cnc(-c2ccccc2)cc1-c1ccccc1	-2%	10%	?	0.3	0.6	3
Cc1c(CCOC(=O)C23CC4(C)CC(C)(CC(C)(C4)C2)C3)sc[n+]1CC(=O)c1ccccc1	-1%[15.4 µM]	17%	nt	0.4	-0.2	-5
COc1cccc(C(=O)Nc2cc(C)ccc2NC(=O)COc2ccccc2)c1	-41%[inhibitor]	-17%	2.1%	0.7	2.7	28
CN(CC1CCCN(CCc2ccccc2F)C1)C(=O)c1cc2ccccc2o1 (configuration not stated)	-30%	nt	1.0%	nt	-0.8	16
COc1ccccc1N1CCN(CCCNC(=O)C2CCCN(c3ncnc4c3nc3n4CCCCC3)C2)CC1 (configuration not stated)	7%	-32%	-0.1%	5.7	3.8	1
Other compounds follow.
SMILES	gsp ag	gsp antagonist	ClpP mod	Menin-MLL FL inh	TRPML1 ag	TRPML1 blocker
O=C1C2C3C=CC(C3)C2C(=O)N1CNc1ccccn1 (configuration not stated)	-19%	9%	-3.8%	0.6	-0.6	7
COC(=O)c1cnc(NNC(=O)c2ccc([N+](=O)[O-])cc2)nc1C(F)(F)F	-15%[15.4 µM]	-21%	?	2.9	-0.8	-4
Cc1cc(=O)oc(C)c1C(=O)Nc1cnc2ccccc2c1	?	10%	-5.4%	?	1.6	9
CCc1ccc(NS(=O)(=O)c2ccc3oc(=O)ccc3c2)cc1	-4%[15.4 µM]	0%	0.4%	7.3	0.5	-8
Cc1nc2ccccc2nc1N1CCCC1	16%[15.4 µM]	3%	nt	2.9	0.5	22
COc1ccc(NC(=O)c2cn(C)c(=O)c3cc(OC)c(OC)cc23)c(OC)c1	4%	-1%	-1.0%	-0.2	-0.5	-27
Fc1ccc(/C=N/Nc2nc3ccccc3[nH]2)cc1F	29%	-10%	1.3%	0.3	2.6	26
COc1ccccc1N1CCN(C(=O)CCCn2c(=O)[nH]c3ccsc3c2=O)CC1	0%	-13%	-2.1%	3.0	-1.0	-17
CCN(CC)c1ccc(NC(=O)CN2CCN(CC(=O)Nc3ccc(Cl)cc3)CC2)cc1	nt	nt	0.5%	nt	-0.3	-8
O=c1cc(NCc2ccco2)[nH]c(=O)n1-c1ccc(Br)cc1	-64%[inhibitor]	2%	-3.9%	-1.9	0.6	10
Cc1ccc(-c2c(C)sc3nc(CN4CCN(CC(=O)NC5CC5)CC4)[nH]c(=O)c23)cc1	17%	?	-6.7%	nt	2.1	4
CCC(CC)c1nnc(NC(=O)c2cccc(S(=O)(=O)N3CCc4ccccc43)c2)s1	-1%	-13%	-3.0%	-0.4	-0.4	-7
CSC1=NCCN1C(=O)c1ccc(S(=O)(=O)N2CCCC2)cc1	1%	0%	-3.4%	7.0	-0.2	13
CC(C)(C)c1ccc2c(c1)C(=O)c1ccccc1C2=O	10%	-14%	nt	4.9	-0.6	3
O=C(CSc1nnnn1-c1ccc2c(c1)OCCO2)Nc1nc2c(s1)CCCC2	12%	-6%	0.4%	-1.4	1.2	-6
O=C(Cn1ncc2c([nH]c3ccccc32)c1=O)NCCCN1CCN(c2ccccc2)CC1	-8%	10%	-25%&-25%	3.4	0.9&-0.4	-12&-2
COc1ccc(-c2nc(CN3CCC(C(=O)NC4CC4)CC3)c(C)o2)cc1OC	12%	-3%	-18%	2.7	-0.8	3
Cc1cc(OCc2cc(C(=O)N3CCC(Oc4cccnc4)CC3)no2)cc(C)c1Cl	-1%[15.4 µM]	-29%	-1.9%	nt	1.8	12
Cc1ccc(C(=O)NC2CC(=O)N(c3ccc4c(c3)OCCO4)C2)cc1[N+](=O)[O-] (configuration not stated)	13%	-3%	-3.6%	nt	-0.7	-2
O=C(O)C1CC=CCC1C(=O)NCCc1csc(-c2ccccc2)n1 (configuration not stated)	-8%	-6%	-20%	-1.1	-0.2	34
CC(=O)Nc1ccc(C(=O)CN2C(=O)NC3(CCOc4ccccc43)C2=O)c(F)c1 (configuration not stated)	1%	1%	-3.8%	nt	-0.4	-1
CC(=O)Oc1cccc(/C=c2\sc3nc(-c4ccco4)nn3c2=O)c1	-9%	-4%	1.6%	23	-1.1	0
CC(OC(=O)Cc1ccc(Cl)cc1)C(=O)NCCC1=CCCCC1 (configuration not stated)	-11%	3%	0.6%	7.0	1.0	-1
